Screens (PubChem BioAssay)
ClpP mod – qHTS Assay for Activators of ClpP; ATP-dependent Clp protease proteolytic subunit (Bacillus subtilis (strain 168)), P80244; purified B. subtilis ClpP, FRET peptide cleavage, 20 min; Potency, µM (titrated, usually from 57.5 µM), for the others: at the top dose activity change, negative = active; 1.9% of 340,000 active; AID 651965, 2013; active = well fitted falling curve with a large enough effect; inconclusive = small, poorly fitted or top-dose-only effect; inactive = no such curve, though single readings can be large or run the other way; also: potency is read from the fitted curve at half-maximal effect; the source files actives as falling curves though it sought activators and does not explain the sign; nearly all actives have a fitted effect of over 65% in size; many hits overshoot -100%
Target sequence (P80244 whole entry, looked up): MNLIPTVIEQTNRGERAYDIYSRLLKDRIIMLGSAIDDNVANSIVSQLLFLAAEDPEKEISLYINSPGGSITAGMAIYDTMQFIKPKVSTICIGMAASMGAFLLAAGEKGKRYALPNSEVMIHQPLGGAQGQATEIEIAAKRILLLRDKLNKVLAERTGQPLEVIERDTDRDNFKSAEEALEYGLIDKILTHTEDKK
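Buffer: 100 mM Tris/HCl pH8, 100 mM KCl, 0.05% low protease BSA, 2.5% glycerol, 0.01% Tween-20. ClpP 10 microg/mL final; 20 min RT; delta FRET normalized to ADEP and DMSO controls.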
D2 PAM – positive allosteric modulators of human D2 dopamine receptor. potentiation, % (no concentration beside the values). P14416. DiscoveRx D2 beta-arrestin cells, luminescence, 90 min; 100% = 57 uM dopamine signal. 0.23% of 360,000 active. AID 624464; active = potentiation of 50% or more; inconclusive = 30% to 50%; inactive = 30% or less;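 also: compound concentration not given in the record; tested on top of an EC20 dose of dopamine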
Target sequence (P14416 whole entry, looked up): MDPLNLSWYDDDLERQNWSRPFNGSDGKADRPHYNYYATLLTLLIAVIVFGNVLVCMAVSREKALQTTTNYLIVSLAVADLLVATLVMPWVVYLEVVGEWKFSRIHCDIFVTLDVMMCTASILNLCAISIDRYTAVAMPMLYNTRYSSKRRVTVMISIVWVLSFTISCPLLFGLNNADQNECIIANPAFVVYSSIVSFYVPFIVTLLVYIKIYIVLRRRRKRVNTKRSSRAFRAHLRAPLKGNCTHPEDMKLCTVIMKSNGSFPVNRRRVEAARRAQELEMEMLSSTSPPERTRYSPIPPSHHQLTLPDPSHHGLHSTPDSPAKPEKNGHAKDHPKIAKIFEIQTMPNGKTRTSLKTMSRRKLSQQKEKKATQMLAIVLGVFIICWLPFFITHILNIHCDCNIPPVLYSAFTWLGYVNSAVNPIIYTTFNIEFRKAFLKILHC
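D2 cells co-treated with compound plus 50 nM dopamine (EC20) for 90 min at 37 deg C to detect potentiation. Beta-arrestin recruitment was read as enzyme-fragment luminescence after 1 h at ambient temperature. Full response was set by 57 uM dopamine.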
Menin MLL FP FL – menin-MLL binding inhibition, fluorescein peptide | Fluorescence polarization, fluorescein-MLL peptide displacement from menin | FP activity change, % at 61.4 µM | 290,000 tested, under 10 active | AID 1766; inconclusive = falling polarisation curve, or a change in total fluorescence; inactive = total fluorescence flat and polarisation flat or rising; no compound was filed as active; the % refers to the polarisation; negative = inhibition;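 also: % of control where 0% means no effect; inhibitors lower the polarisation; unlabelled MLL peptide was the positive control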
Sfp inh – Sfp phosphopantetheinyl transferase inhibition; Biochemical Sfp PPTase activity, qHTS; Potency, µM, without a hit: max response, negative = inhibition, usual class: inhibitors; 3.5% of 310,000 active; AID 1490; active = well fitted inhibition curve with a large enough effect; inconclusive = small, poorly fitted or top-dose-only effect, or another doubt; inactive = no such curve, though single readings can be large or run the other way;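 also: the enzyme is Sfp with the accession as filed and its product quenches rhodamine fluorescence; potency is read from the fitted curve at half-maximal effect; 0% = enzyme reaction without inhibitor and -100% = no enzyme wells; top concentration of the series not given in the record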
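Compounds were incubated with enzyme (final 15 nM) for 15 min at room temperature before substrate addition started the reaction. Fluorescence at 525 nm excitation, 598 nm emission was recorded immediately and after 30 minutes.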
TRPV1 PAM – enhances activation of the human vanilloid receptor TRPV1; TRPV1-expressing cells, Fluo-8 calcium influx, capsaicin EC20 potentiation; host cell line not named in the record; control for the full effect not named in the record; potentiation, % at 8.33 µM; 0.02% of 320,000 active; active means potentiation above 80%; inconclusive means 30% to 80%; inactive means below 30%; also: 0% is about no effect
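TRPV1-expressing cells were cultured overnight at 35.5C and loaded with Fluo-8 calcium dye for 40 to 90 min at room temperature. After a 10 s baseline, compound was added and calcium influx was read kinetically for 3 min (ex 480/em 520 nm).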
gsp antag – antagonizes gsp, the McCune-Albright syndrome mutation; gsp-mutant cells, cAMP HTRF, 30 min; control for the full effect not named in the record; Potency, µM (series often up to 76.9 µM), without a hit: top-dose activity change, negative = inhibition, actives largely listed as inhibitors; 0.4% of 340,000 active; AID 624288; active = falling curve of any shape with a large fitted effect; inconclusive = falling curve, mostly with a smaller effect; inactive = flat or rising curve; cell line not stated here;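 also: intracellular cAMP measured with PDE inhibitor Ro 20-1724 present during compound exposure; potency is read from the fitted curve at half-maximal effect; % is scaled to controls: 0 for no effect and ±100 for the full control effect; nearly all actives have a fitted effect of over 65% in size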
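HTRF cAMP read-out (cAMP-d2 plus anti-cAMP antibody-K in lysis buffer, 30 min RT). Before lysis, cells are exposed to compounds with […] for 30 min at 37C in DPBS containing Ca/Mg, BSA and Tween 20.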
gsp ag – agonists of gsp mutant (McCune-Albright syndrome); gsp mutant cells, cAMP HTRF, 30 min; control for the full effect not named in the record; Potency, µM (series often up to 76.9 µM), inactives show at the top dose activation (cAMP increase), most hits filed as activators; 0.13% of 340,000 active; active = well fitted activation curve with a large enough effect; inconclusive = small, poorly fitted or top-dose-only effect, or another doubt; inactive = no such curve, though single readings can be large or run the other way; cell line not stated here;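 also: phosphodiesterase inhibitor Ro 20-1724 added with compounds to block cAMP breakdown; potency is read from the fitted curve at half-maximal effect; nearly all actives have a fitted effect of over 60% in size; about a fifth of the inactives were tested at one dose only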
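Cells stably selected in G418 were plated at 2000/well, grown 16-24 hr, then given compounds in DMSO with the PDE inhibitor […] (300 uM solution added) for 30 min at 37C; cAMP was read by HTRF.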
* marks the source's active call; other numbers are inactive results; ? = inconclusive; / = no result given; & = joins results of further samples; [ ] = another dose, or the depositor's remark.

SMILES | ClpP mod | D2 PAM | Menin MLL FP FL | Sfp inh | TRPV1 PAM | gsp antag | gsp ag
CCOc1nc(-c2ccccc2)ccc1-c1noc(COc2ccccc2)n1 | ? | -13 | 11 | -5% | -11 | -3% | 12%
O=c1/c(=C/c2ccccn2)sc2nc3ccccc3n12 | 3.1% | 19 | ? | -4% | 9 | 14% | -3%
Cc1ccc([C@H]2N[C@]3(CCCN(Cc4ccc(Cl)cc4)C3=O)[C@H]3C(=O)N(Cc4ccccc4)C(=O)[C@@H]23)cc1 | -1.8% | -2 | / | / | / | / | -7%
COc1ccc(NC(=O)CNC(=O)C23CC4CC(CC(C4)C2)C3)c(OC)c1 | / | -2 | / | / | 0 | 1% | 16%[15.4 µM]
CCCN1CCC(NC(=S)Nc2ccc(OC)c(OC)c2)CC1 | 0.9% | -7 | -3.0 | -5% | 4 | 1% | -10%
Cc1cccc(C)c1NC(=O)CNC(=O)C(C)N1CCN(c2cccc(Cl)c2)CC1 (stereo unspecified) | 0.6% | -21 | / | / | -6 | -9% | ?
COc1ccc(C)cc1NC(=O)CNC(c1ccccc1)c1ccccc1 | -1.6% | -11 | -7.9 | -12% | 7 | -23% | -1%
CCOC(=O)[C@@H]1[C@H]2COc3ccccc3[C@@H]2N2C(=O)N(c3cccc(Cl)c3)C(=O)[C@]12C | -2.4% | -5 | -5.9 | 6% | -18 | 2% | 9%
O=C(COC(=O)CCC(=O)c1ccc(Cl)cc1)NCc1ccco1 | / | -4 | ? | 14µM* | -1 | 3% | -2%
COc1ccc(N2CCN(C(=S)NC(=O)c3cccs3)CC2)c([N+](=O)[O-])c1 | / | -7 | -3.5 | 8% | -3 | ? | -2%[15.4 µM]
CC(C)OC(=O)c1cc2c(=O)[nH]c(C(Cl)(Cl)Cl)nc2o1 | -7.9% | -1 | -3.2 | -12% | 12 | -29% | ?
Cc1ccc(NC(=O)CCN2C(=O)C3CC=CCC3C2=O)cc1Cl (stereo unspecified) | 0.5% | -4 | / | / | -18 | 34%[activator] | 21%
CCOC(=O)N1CCN(C(=O)C(CC(C)C)NS(=O)(=O)c2ccc(C)cc2)CC1 (stereo unspecified) | -1.4% | -1 | / | / | -13 | -6% | ?
CCOC(=O)c1ccc(NC(=O)c2cc(F)c(F)cc2Cl)cc1 | / | 3 | 1.6 | 19% | -11 | / | 5%[15.4 µM]
O=S(=O)(NCc1ccccc1Cl)c1ccc(-n2cccn2)cc1 | -1.4% | -7 | / | -1% | 6 | 2% | 26%
O=C(CSc1ncnc2c1cnn2-c1ccccc1)NC1CCS(=O)(=O)C1 (stereo unspecified) | 2.4% | -16 | / | / | -4 | -1% | -52%[inhibitor]
CC(OC(=O)c1ccccc1NS(=O)(=O)c1cccc(C(F)(F)F)c1)C(=O)N(C)Cc1ccccc1 (stereo unspecified) | / | 4 | 0.2 | 9% | 0 | -8% | -25%
COC(=O)C1=C(N)OC2=C(C(=O)CC(C)(C)C2)C1c1ccccc1OCC#N (stereo unspecified) | / | -7 | 0.1 | 6% | -3 | -3% | 7%[15.4 µM]
CN(C)CC(=O)N1CCc2ccccc2C1 | -0.3% | -9 | 0.6 | -13% | -5 | 19% | 3%
Oc1ccc(NCc2ccccc2OCc2ccccc2F)cc1 | 4.2%&-3.2% | 115* | 3.9 | ? | -9 | 1%[15.4 µM] | -12%
O=C(NCCc1nc2ccc(Cl)cc2[nH]1)C1CCC(=O)N(Cc2cccc(F)c2)C1 (stereo unspecified) | -0.4% | -6 | / | 9% | 19 | -1% | -4%[15.4 µM]
CCN1CCN(C(c2ccccc2)c2sc3nc(C)nn3c2O)CC1 (stereo unspecified) | 0.9% | -4 | 3.0 | 6% | 0 | 4% | ?
COc1cc2c(N3CCOCC3)cc(O)c(CC(=O)Nc3ccccc3)c2cc1OC | 28µM* | -18 | -15 | -29% | 3 | -11% | 2%
O=C1C2CCCN2C(=O)N1CCCCN1CCN(c2ccc(F)cc2)CC1 (stereo unspecified) | 1.7% | -23 | -2.1 | 2% | 2 | 15% | -13%
CCOC(=O)c1c(NC(=O)C(=O)N/N=C/c2ccc(O)c(OC)c2)sc2c1CCCCC2 | -2.9% | 1 | 8.6 | ? | -2 | -6% | -1%[15.4 µM]
(continued)
SMILES | ClpP mod | D2 PAM | Menin MLL FP FL | Sfp inh | TRPV1 PAM | gsp antag | gsp ag
O=C(CCCCCN1C(=O)CCC1=O)Nc1ccc(Br)cc1F | -1.3% | -3 | 0.3 | -6% | 2 | 5% | 1%
O=C(O)c1c(Cl)c(Cl)c(Cl)c(Cl)c1C(=O)N1CCOCC1 | -1.3% | 0 | -0.5 | ? | 1 | -1% | -23%
COc1cccc(C(=O)/C(C#N)=N/Nc2cccc(-c3ccnc(C)n3)c2)c1 | 1.3% | -6 | 1.7 | -8% | 19 | ? | 3%
Cc1ccc(S(C)(=O)=O)cc1C(=O)N1CC(C(N)=O)Oc2ccccc21 (stereo unspecified) | / | 3 | 4.2 | 13% | 18 | -4% | -23%[15.4 µM]
COC(=O)Nc1ccc2c(c1)N(C(=O)CCN1CCOCC1)c1ccccc1S2 | -2.5% | -9 | 4.4 | ? | -12 | 2% | 11%
COC(=O)CNc1ccc2c(c1)OCO2 | 16% | -11 | -19 | -19% | -25 | -26% | -27%
CCC(=O)NC(c1ccc([N+](=O)[O-])cc1)c1c(O)ccc2ccccc12 (stereo unspecified) | 0.7% | -2 | -1.5 | -14% | 30 | ? | -67%[inhibitor]
CNC(=O)c1cc(C(=O)c2ccccc2C(F)(F)F)c[nH]1 | / | -7 | -0.5 | 29% | 21 | -3% | -2%
C[n+]1c2n(c3ccccc31)N=C(c1ccccc1)CS2 | -15%&1.0% | -11&-14 | 1.1&2.0 | -14%&-16% | ? | -9%&-17% | 6%[15.4 µM]
CCN(CC)C(=O)CN(c1cc2c(cc1OC)oc1ccccc12)S(=O)(=O)c1ccc(C)cc1 | -6.4% | -11 | 3.4 | 4% | 0 | -13% | 1%
CCCCCCn1c(=O)n2n(c1=O)C[C@]1(OC(=O)NC3CC3)CN(S(=O)(=O)c3ccc(C)cc3)C[C@]1(O)C2 | 1.4% | 5 | / | / | / | / | -59%[inhibitor]
COC(=O)CSc1nsc(SCC(=O)OC)n1 | 0.0% | -8 | 0.9 | -4% | -11 | ? | -2%
Cc1cc(NC(=O)c2ccc(Cl)cc2Cl)no1 | -1.3% | 0 | 2.1 | 8% | 5 | 6% | -4%
Cc1sc(NC(=O)c2c(F)cccc2F)nc1-c1ccccc1 | / | -9 | -0.2 | -7% | 10 | 4% | -25%
CCN(CC)C(=O)C1=C(C)N(CCCN2CCCC2=O)C(=O)C(CC(=O)NCC2CCCCC2)C1 (stereo unspecified) | 0.2% | 0 | / | / | / | / | -24%
CC(=O)OCn1nnc2ccccc2c1=O | -10% | -16 | 5.5 | 0% | -16 | -7% | -15%
Nc1cc(=O)[nH]c(SCC(=O)Nc2cccnc2Cl)n1 | / | -16 | -4.1 | 12% | -16 | / | 10%[15.4 µM]
COc1ccc(C(=O)Nc2nncs2)cc1S(=O)(=O)N1CCOCC1 | / | -9 | -3.1 | 13% | -7 | -4% | 13%
COc1ccc(S(=O)(=O)N2CCN=C2SCc2cccc(C)c2)cc1 | -1.0% | 1 | -0.1 | 1% | -4 | -11% | -12%

Reprinted from the entries so far, eleven compounds:
SMILES | ClpP mod | D2 PAM | Menin MLL FP FL | Sfp inh | TRPV1 PAM | gsp antag | gsp ag
O=C(CCCCCN1C(=O)CCC1=O)Nc1ccc(Br)cc1F | -1.3% | -3 | 0.3 | -6% | 2 | 5% | 1%
O=C(O)c1c(Cl)c(Cl)c(Cl)c(Cl)c1C(=O)N1CCOCC1 | -1.3% | 0 | -0.5 | ? | 1 | -1% | -23%
COc1cccc(C(=O)/C(C#N)=N/Nc2cccc(-c3ccnc(C)n3)c2)c1 | 1.3% | -6 | 1.7 | -8% | 19 | ? | 3%
Cc1ccc(S(C)(=O)=O)cc1C(=O)N1CC(C(N)=O)Oc2ccccc21 (stereo unspecified) | / | 3 | 4.2 | 13% | 18 | -4% | -23%[15.4 µM]
COC(=O)Nc1ccc2c(c1)N(C(=O)CCN1CCOCC1)c1ccccc1S2 | -2.5% | -9 | 4.4 | ? | -12 | 2% | 11%
COC(=O)CNc1ccc2c(c1)OCO2 | 16% | -11 | -19 | -19% | -25 | -26% | -27%
CCC(=O)NC(c1ccc([N+](=O)[O-])cc1)c1c(O)ccc2ccccc12 (stereo unspecified) | 0.7% | -2 | -1.5 | -14% | 30 | ? | -67%[inhibitor]
CNC(=O)c1cc(C(=O)c2ccccc2C(F)(F)F)c[nH]1 | / | -7 | -0.5 | 29% | 21 | -3% | -2%
C[n+]1c2n(c3ccccc31)N=C(c1ccccc1)CS2 | -15%&1.0% | -11&-14 | 1.1&2.0 | -14%&-16% | ? | -9%&-17% | 6%[15.4 µM]
CCN(CC)C(=O)CN(c1cc2c(cc1OC)oc1ccccc12)S(=O)(=O)c1ccc(C)cc1 | -6.4% | -11 | 3.4 | 4% | 0 | -13% | 1%
CCCCCCn1c(=O)n2n(c1=O)C[C@]1(OC(=O)NC3CC3)CN(S(=O)(=O)c3ccc(C)cc3)C[C@]1(O)C2 | 1.4% | 5 | / | / | / | / | -59%[inhibitor]
